Biofilm kill mix = mixtures killing C. albicans biofilm; inhibition, % at 7.6 µM; AID 1242; C. albicans biofilm persisters + clotrimazole, fluorescence viability; primary screen in compound mixtures of four per well; hit rate 0.02% among 120,000;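 active means inhibition above 30.3% in the primary screen of four-compound pools, then above 30% when the compound was retested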;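 further: compounds exposed to preformed 24 h biofilms for 48 h; the number belongs to the whole pool; some results filed as inactive read as strong as hits; inactives centre near 12; 0% = biofilm with clotrimazole alone and 100% = kill control; retested singly at about 60 µM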
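Assay system: C. albicans biofilms / Medium: RPMI/MOPS medium, pH 7.0 / Schedule: biofilm formation 24 h, compound exposure 48 h, 37 °C / Measured by: Alamar Blue fluorescence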
* marks the source's active call; other numbers are inactive results. An excerpt. The share of hits here may be higher or lower than overall.

SMILES	Biofilm kill mix
COc1ccc(NC(=O)CCC(=O)N(Cc2ccc(OC)c(OC)c2)c2nccs2)cc1	10.7
COc1ccc(N(Cc2nnc3n2CCCCC3)C(=O)Nc2ccccc2)cc1	9.5
O=C1NN=C(c2ccc(Cl)cc2)CC1c1c[nH]c2ccccc12 (stereo not drawn)	18.7
CCCCn1c(NC(=O)c2ccco2)c(S(=O)(=O)c2ccc(C)cc2)c2nc3ccccc3nc21	21.3
CCOc1ncccc1C(=O)NCc1ccccc1F	-9.7
Cc1ccc(NC(=O)COC(=O)CCc2c[nH]c3ccccc23)cc1[N+](=O)[O-]	14.1
CCc1ccc(OCC(=O)N/N=C(\C)c2ccc(-n3ccnc3)cc2)cc1	11.6
CCOC(=O)CSc1nc(-c2ccccc2)nc2ccc(C)cc12	5.0
C=CCNc1nc(Cl)nc(Nc2ccc(OCC)cc2)n1	-11.6
Cc1nn(Cc2ccccc2)c(C)c1NC(=O)CSc1nc2c(c(C(F)(F)F)n1)CCc1ccccc1-2	17.7
COC(=O)N1CCN(CCc2ccccc2)CC1	2.2
Cc1cccc(C(=O)Nc2ccnc(-c3ccncc3)n2)c1	2.8
O=C1NC2(CCCCCC2)Oc2ccccc21	16.2
CCN(CC)C(=O)CSc1nnc(-c2ccccn2)n1-c1ccccc1OC	13.6
O=C(CN(C(=O)CSc1nc2ccccc2o1)c1ccccc1F)NC1CCCCC1	13.4
Cc1cc(N(CC(=O)NC(C)C)S(C)(=O)=O)ccc1Br	5.9
COc1ccc(CCN(Cc2ccccn2)C(=S)Nc2ccccc2Cl)cc1OC	22.6
Cc1ccc2[nH]c(=O)cc(C(=O)OCC(=O)c3ccccc3)c2c1	-13.3
O=C(c1cc(COc2ccc3ncccc3c2)on1)N1CCCCCC1	9.7
O=[N+]([O-])c1ccc2[nH]c(O)c(N=NC(=S)NCC3CCCO3)c2c1 (stereo not drawn)	4.5
CCN(CC)CCNC(=O)/C(=C\c1cccn1C)NC(=O)c1cccs1	3.6
COc1ccc(-c2nnc3n(CCc4ccccc4)c(=O)c4ccccc4n23)c(OC)c1	2.5
COc1ccc(NC(=S)N(CCO)Cc2ccccc2)cc1	9.0
COc1ccc(C/C(C)=N/NC(=O)c2cccnc2)cc1	7.8
O=C(CNC(=O)c1ccc(Cl)cc1)Nc1ccccc1C(F)(F)F	16.4
Next part
SMILES	Biofilm kill mix
COc1ccc(-n2c(C)cc(C(=O)CCl)c2C)cc1	16.8
c1ccc(N2CCOCCOCCOCCOCCOCC2)cc1	21.5
O=C(CSc1nnc(NC(=O)c2ccccc2Cl)s1)Nc1ccc2c(c1)oc1ccccc12	15.1
O=C(c1ccco1)N1CCCN(Cc2cn[nH]c2-c2ccc(-c3ccccc3)cc2)CC1	3.2
Cc1ccc(NC(=O)[C@@H]2CCCN2S(=O)(=O)c2ccccc2C(F)(F)F)cc1S(=O)(=O)N1CCOCC1	5.3
Fc1ccc(Sc2ccccc2CNC2=NCCN2)cc1	-1.6
CCO[C@@H]1OC(C(=O)N2CCN(C)CC2)=C[C@H](c2coc3ccccc3c2=O)[C@H]1CCCO	24.1
O=C(COc1cccc(F)c1)N1c2ccccc2Sc2ccccc21	10.1
Cc1cccc(C)c1NC(=S)Nc1ccccc1C(=O)NCc1ccco1	5.3
Cc1nnc(NC(=O)c2ccccc2Oc2ccccc2)s1	13.4
O=C(NCc1cccnc1)c1ccc(Cn2cc(C(F)(F)F)ccc2=O)cc1	4.7
Cc1ccc(CCNC(=O)C23C[C@H]4C[C@@H](C2)CC(n2nnc(C)n2)(C4)C3)cc1	12.2
Cc1ccc(S(=O)(=O)NCCCCCC(=O)Nc2c(C)n(C)n(-c3ccccc3)c2=O)cc1	14.5
O=C(NCCc1ccc(Cl)cc1)C1CCN(c2ncccn2)CC1	3.7
CC(C)n1ncc2c(C(=O)O)cc(C3CC3)nc21	14.0
COc1ccc(C(=O)NCC2(c3ccccc3)CCOCC2)cc1	-3.9
Cn1c(SCC(=O)NCC2CCCO2)nc2c([nH]c3ccccc32)c1=O (stereo not drawn)	10.4
CCOCCCn1c(NN)nc2ccccc2c1=O	12.1
O=C(NC1CCCCC1)c1ccc(NS(=O)(=O)c2cccc3cccnc23)cc1	2.4
CCCCN(C)CCNC(=O)CCNC(=O)Cn1ccc2ccccc2c1=O	14.2
CCOC(=O)c1cnc(-n2nc(C)cc2C)nc1NNc1nc(C)cc(C)n1	10.8
CCOC(=S)SCC(=O)Nc1ncc(C)s1	2.7
O=C(Nc1nnc(-c2ccc3c(c2)OCCO3)o1)C1CCCCC1	22.4
CC(C)(Oc1ccc(CCNC(=O)c2ccc(-c3ccc(Cl)cc3)o2)cc1)C(=O)O	5.1
Nc1ccc2c(c1)C(=O)Cc1ccccc1S2	17.7

Three structures from above, sorted by count of non-hydrogen atoms, largest number first:
SMILES	Biofilm kill mix
Cc1ccc(NC(=O)[C@@H]2CCCN2S(=O)(=O)c2ccccc2C(F)(F)F)cc1S(=O)(=O)N1CCOCC1	5.3
Cn1c(SCC(=O)NCC2CCCO2)nc2c([nH]c3ccccc32)c1=O (stereo not drawn)	10.4
O=C(NCCc1ccc(Cl)cc1)C1CCN(c2ncccn2)CC1	3.7

Following part.
SMILES	Biofilm kill mix
C=C(C)C(=O)N1CC2(CC(c3cccc(NC(=O)/C(C)=C\C)c3)=NO2)C[C@H]1C(N)=O (stereo partly drawn)	13.0
COc1ccc(C2CC(c3ccc4ccccc4c3OC(C)=O)=NN2C(C)=O)cc1 (stereo not drawn)	26.3
CCSc1nnc(Cc2cc(=O)[nH]c(=O)[nH]2)n1-c1ccc(Cl)cc1	24.0
CCc1cc(CNC(=O)CCc2nnc(Cc3cccc(C)c3)o2)on1	14.0
CCn1c(CCCCc2n[nH]c(=S)n2CC)n[nH]c1=S	-0.1
CC(C)C[C@H](NC(=O)C1(c2ccccc2)CCN(C(=O)[C@H]2CSCN2C(=O)OC(C)(C)C)CC1)C(=O)O	11.0
CCN(C(=O)COC(=O)c1ccc(Cl)c(N)c1)C1CCS(=O)(=O)C1 (stereo not drawn)	8.0
CC(C)(C)OC(=O)N1CCC(CNC(=O)Nc2ccccc2)CC1	15.9
COc1ccc(C(=S)N2CCCC2)cc1	17.5
O=C(O)/C=C/C(=O)Nc1ccc(Oc2ncnc3cc(Cl)ccc23)nc1	20.8
COc1ccc(/C=N/NC(=O)CSc2ccccc2)cc1OC	7.5
Cc1nc([N+](=O)[O-])c(C(=O)O)n1C	11.3
CN(CC(=O)Nc1ccccc1Cl)C(=O)CSc1ncc(C(F)(F)F)cc1Cl	8.4
COc1ccc(C(=O)/C=C/Nc2ccc(S(=O)(=O)Nc3ncccn3)cc2)cc1	11.9
Cc1cc(C)nc(SCCS(=O)(=O)Cc2ccc(Cl)cc2)n1	13.7
CN1CCN(S(=O)(=O)c2cccs2)CC1	5.5
c1ccc2c(c1)[nH]c1c3ccccc3sc21	5.5
CCCCS(=O)(=O)C1CCS(=O)(=O)C1 (stereo not drawn)	14.4
CCN(C(=O)CSc1nnc(-c2ccncc2)n1-c1ccccc1)C1CCS(=O)(=O)C1 (stereo not drawn)	4.7
CCCC12CN3CC(C)(CN(C1)C3c1ccc([N+](=O)[O-])o1)C2=O (stereo not drawn)	10.3
CSCCC(=O)Nc1cc(S(=O)(=O)N2CCOCC2)ccc1N1CCN(C)CC1	10.9
CC(C)CC(C)NC(=O)c1ccc(C(F)(F)F)cc1 (stereo not drawn)	12.8
COc1ccc([C@H]2C(C#N)=C([S-])N[C@](C)(O)[C@@H]2[n+]2ccccc2)cc1	31.8
COc1ccc(NC(=O)CC2C(=O)N(Cc3ccco3)C(=S)N2C(C)C)cc1 (stereo not drawn)	-0.3
C/C(=N\NC(=O)Nc1ccccc1)c1ccccc1	21.7
Carrying on.
SMILES	Biofilm kill mix
Cc1ccc(-n2ncc(C(=O)Nc3cc(Cl)ccc3Cl)c2C2CCNCC2)cc1	18.1
COc1ccc(C(=O)CN2CCN(c3cc(C)nc4ccccc34)CC2)cc1	12.3
O=C(Cn1cncn1)N/N=C/c1cc([N+](=O)[O-])ccc1O	15.7
C#CCOCCOCCOCCNc1nc(N2CCN(C(=O)[C@H](CCC(=O)O)n3cc(C(N)Cc4ccc(O)cc4)nn3)CC2)nc(N2CCN(C(=O)[C@H](CCC(=O)O)n3cc(C(N)Cc4ccc(O)cc4)nn3)CC2)n1 (stereo partly drawn)	18.6
CCN(CC)CCCN=Cc1c(O)n(-c2ccc(C)cc2)c(=O)c2ccccc12	30.1
O=C(NC(=S)NC1CCCCCC1)c1cncc(Br)c1	-5.3
CC(=O)NNC(=O)c1sc(=S)n(C)c1C	19.2
CC(C)CCNC(=S)Nc1ccccn1	11.2
COc1ccc(OC)c(C2CC(=O)OC3=C2C(=O)CC(C)(C)C3)c1 (stereo not drawn)	12.4
CCCCN(C)CCC(=O)Nc1ccc2c(c1)CCC2	7.5
COC(=O)c1ccc2c(=O)n(CC3CCCO3)c(SCC(=O)NCCc3ccc(S(N)(=O)=O)cc3)nc2c1 (stereo not drawn)	8.9
Cc1noc(NS(=O)(=O)c2ccc(N/C=C\C(=O)c3ccc(Br)cc3)cc2)c1C	20.1
CCSc1nnc(NC(=O)[C@@H](NC(=O)c2ccc(C(C)(C)C)cc2)C(C)C)s1	9.1
Cc1ccc(-c2cc(C(=O)Nc3cc(C(=O)O)ccc3C)c3ccccc3n2)cc1	10.3
Cc1noc(C)c1C(=O)N1CCN(S(=O)(=O)c2ccc(F)cc2)CC1	6.3
COc1ccc(OC)c(/C=N/NC(=O)c2ccc(=O)[nH]n2)c1	4.2
C=CCNC(=O)C1CCN(c2ccc(S(=O)(=O)N3CCOCC3)cc2Cl)CC1	7.5
CCCCCCCc1c(O)nc(SCC(=O)O)[nH]c1=O	0.5
CC(=O)c1ccc(NC(=O)c2cc(Cl)sc2Cl)cc1	6.4
COc1ccc(/C=N/N2CCOCC2)cc1COc1ccc(F)cc1	16.4
C/C(=N/N1CCN(Cc2cccc3ccccc23)CC1)c1ccco1	12.1
COc1ccc(NC(=S)NC2CC3CCCC(C2)N3C2CC2)cc1 (stereo not drawn)	8.1
CC(=O)/C(N=Nc1ccc2c(c1)OCCO2)=C(\C)O	12.0
Cc1ccc(NC(=O)CCC(=O)NNC(=O)NC23CC4CC(CC(C4)C2)C3)cc1C	19.3
C=CCn1cc(F)c(=O)n(CC=C)c1=O	0.2

Overlap with the part before: 6 compounds; new compounds follow.
SMILES	Biofilm kill mix
COc1ccc(/C=N/N2CCOCC2)cc1COc1ccc(F)cc1	16.4
C/C(=N/N1CCN(Cc2cccc3ccccc23)CC1)c1ccco1	12.1
COc1ccc(NC(=S)NC2CC3CCCC(C2)N3C2CC2)cc1 (stereo not drawn)	8.1
CC(=O)/C(N=Nc1ccc2c(c1)OCCO2)=C(\C)O	12.0
Cc1ccc(NC(=O)CCC(=O)NNC(=O)NC23CC4CC(CC(C4)C2)C3)cc1C	19.3
C=CCn1cc(F)c(=O)n(CC=C)c1=O	0.2
Cc1cccc(OCC(=O)N=Nc2c(O)[nH]c3ccc([N+](=O)[O-])cc23)c1	18.3
Cc1ccc(NC(=O)C2CC(=O)Nc3ncnn32)cc1Cl (stereo not drawn)	19.1
O=C(NCCc1cccc(Cl)c1)c1cccc([N+](=O)[O-])c1	-1.6
Cc1cc(C(=O)CSc2cccc[n+]2[O-])c(C)n1-c1ccccc1	13.7
CCC(C)NCCCOc1ccc(C)cc1OC (stereo not drawn)	17.6
CNC(=S)N(CCc1c(C)[nH]c2ccc(C)cc12)Cc1ccc(OC)c(OC)c1	4.1
CCC(/C=N/NC(=O)c1ccccc1F)CC	6.3
CCOC(=O)C1=C(O)/C(=C\c2cc(C)n(-c3ccccc3F)c2C)N=C1C	2.5
c1cncc(-c2nc(NCc3ccc4c(c3)OCO4)c3ccccc3n2)c1	15.5
CCCSCC(=O)Nc1ncc2c(n1)-c1ccccc1CC2	16.2
COc1ccccc1CN1C[C@@H]2C[C@@H](C3=Cc4cc(Cl)ccc4OC3)N3CCC[C@@]23C1=O	19.5
CC(=O)Nc1cccc(N/C=C(\C=O)c2nc3ccccc3o2)c1	8.7
CC1(C)CC(=O)C=C(NCCc2c[nH]c3ccccc23)C1	21.7
O=C(CCC1CCCN(Cc2ccc(O)c(Cl)c2)C1)NCc1ccccc1F (stereo not drawn)	8.1
c1ccc(Cc2noc(CN3CCCN(C4Cc5ccccc5C4)CC3)n2)cc1	13.2
O=C(COC(=O)/C=C/C(=O)N1CCN(c2ccccc2)CC1)NCc1ccc(F)cc1	7.8
CCC(C)Sc1nnc(CNC(=O)C23CC4CC(CC(C4)C2)C3)n1C1CCCCC1 (stereo not drawn)	11.5
O=C(C1CCCCC1)N1CCC(CO)(Cc2ccccc2Cl)CC1	15.4
CC(=O)c1cccc(NC(=O)COC(=O)CCc2ccc(S(=O)(=O)N3CCOCC3)cc2)c1	6.8
COc1ccc(Cc2nc3ccccc3n2CC(=O)N/N=C/c2ccc(O)cc2)cc1OC	13.4
CCOc1cccc(C(=O)Nc2cccc(NC(=O)c3ccco3)c2)c1	1.9
CCc1ccccc1NC(=O)Nc1cccs1	8.8
Cc1ccc(/C=N/NC(=O)Cc2cccs2)o1	7.8
O=C(CCC1CCCC1)Nc1ccccc1-c1ccccc1	14.8
Cn1c(=O)c2c(nc(N/N=C/c3cccnc3)n2Cc2ccc(F)cc2)n(C)c1=O	5.2
Next part:
SMILES	Biofilm kill mix
N#Cc1ccc(CSc2nnc(-c3cccnc3)o2)cc1	11.9
CC(C)(C)NC(=O)C(=O)NNC(=O)c1cccc([N+](=O)[O-])c1	24.6
Cc1ccc(S(=O)(=O)N2CCCCC2)cc1NC(=O)CSc1nnnn1C	-6.1
C=CCn1c(CCSCc2ccc(OC)c(C)c2)n[nH]c1=S	5.3
CCCCC(O)(CCCC)C(=O)NN(C(=O)OC)c1ccccc1	14.2
O=C(c1ccccc1NS(=O)(=O)c1ccc(Cl)cc1)N1CCc2ccccc21	18.2
Cc1nc(Nc2ccccc2Cl)sc1C(=O)Nc1ccccc1	22.0
O=C(CS(=O)(=O)c1ccccc1)Nc1ccc(S(=O)(=O)Nc2ccccn2)cc1	23.8
CC(C)Oc1ccc(C2CC(=O)N(Nc3ccc([N+](=O)[O-])cc3[N+](=O)[O-])C2=O)cc1 (stereo not drawn)	22.1
